# Vaccinia mCherry: inhibitors of vaccinia virus infection (mCherry reporter signal) | Vaccinia virus mCherry reporter infection, fluorescence; about a quarter of the inactives have no number | Potency, µM (series often up to 36.5 µM), without a hit: at the top dose activity change, negative = inhibition, most hits filed as inhibitors | AID 720579 | actives 0.63% (n = 310,000); active = well fitted inhibition curve with a large enough effect; inconclusive = small, poorly fitted or top-dose-only effect; inactive = no such curve, though single readings can be large or run the other way; tested in A549 cells; also: nearly all actives have a fitted effect of over 35% in size; inactives centre near -10
# Vaccinia Venus: inhibitors of vaccinia virus (Venus reporter) | Vaccinia virus Venus reporter expression, fluorescence | Potency, µM (doses to about 36.5 µM), inactives show at the highest dose activity change, negative = inhibition, usual class: inhibitors | actives 0.46% (n = 330,000); active means well fitted inhibition curve with a large enough effect; inconclusive means small, poorly fitted or top-dose-only effect; inactive means no such curve, though single readings can be large or run the other way; tested in A549 cells; also: nearly all actives have a fitted effect of over 30% in size; inactives centre near -10
# The depositor's hits bear a star; i = inactive; ? = inconclusive; · = no result given; & = joins results of further samples; [ ] = remark or other dose. % is scaled to controls: 0 for no effect and ±100 for the full control effect; potency is read from the fitted curve at half-maximal effect.
SMILES,Vaccinia mCherry,Vaccinia Venus
CCN(CC(=O)Nc1cc(Cl)ccc1C)C(=O)c1ccc2c(=O)n3c(nc2c1)CCC3,-2%,-15%
O=C(O)CCNS(=O)(=O)c1ccc2c(c1)CCCC2,i,-7%
CCn1cc2nc(SCC(=O)Nc3ccccc3C(F)(F)F)n(Cc3ccc(C)cc3)c(=O)c2n1,-15%,-24%
COc1ccc(C(C(=O)NCC2CCCO2)N(C(=O)Cn2nnc3ccccc32)c2ccc(NC(C)=O)cc2)cc1OC (stereo not given),-8%,-10%
O=C(CC1SC(N2CCCC2)=NC1=O)Nc1ccc(C(=O)NCc2ccc(F)cc2)cc1 (stereo not given),i,2%
COC(=O)C1=C(C)N(C)C(=S)NC1c1ccc(Cl)cc1 (stereo not given),-4%,6%
O=C(NCCCN1CCOCC1)C(=O)N/N=C/c1ccc2c(c1)OCO2,3%,7%
COc1cccc(CNC(=O)c2ccc3c(=O)n4nc(Nc5ccccc5)sc4nc3c2)c1,?,-28%
Cc1ccc(NC(=O)Cc2ccc3c(c2)OCCO3)cc1S(=O)(=O)N1CCCCC1,0%,-10%
O=C1CC(c2ccco2)CC(O)=C1C=Nc1ccc(Br)cc1 (stereo not given),·,-20%
COc1ccccc1C(OC(=O)c1ccco1)C(=O)NCc1ccc(F)cc1 (stereo not given),-12%,-8%
O=C(O)CCCNC(=O)c1ccc(NC(=O)Cc2ccc(Cl)cc2)cc1,-12%,-1%
Cc1cccc(-c2nc(CS(=O)CC(=O)NCCc3ccccc3)c(C)o2)c1 (stereo not given),i,-5%
Cc1cccc(OCC(=O)N(Cc2cccs2)C2CCS(=O)(=O)C2)c1 (stereo not given),i,-16%
COc1cccc(Cc2nc3ccccc3nc2SCC(=O)Nc2cccc(C)c2)c1,-19%,-9%
[N-]=[N+]=NC[C@H](Cc1ccccc1)N1CC[C@@H](O)CCC1=O,-5%,0%&-13%
COc1ccc(C(=O)CSc2nnc(-c3ccoc3C)n2CC2CCCO2)cc1 (stereo not given),-18%,-7%
O=C1NCC(Nc2ccc(Cl)cc2)C(=O)N1 (stereo not given),-5%,-2%
Cc1ccc2nc(NCCO)nc(-c3ccccc3)c2c1,-1%,-22%
COC(=O)[C@H](CC(C)C)NC(=O)Cn1cnc2c(NCc3ccccc3)ncnc21,i,-7%

# Six entries from above, with tabs.
Compound	Vaccinia mCherry	Vaccinia Venus
O=C(CC1SC(N2CCCC2)=NC1=O)Nc1ccc(C(=O)NCc2ccc(F)cc2)cc1 (stereo not given)	i	2%
COC(=O)C1=C(C)N(C)C(=S)NC1c1ccc(Cl)cc1 (stereo not given)	-4%	6%
O=C(NCCCN1CCOCC1)C(=O)N/N=C/c1ccc2c(c1)OCO2	3%	7%
COc1cccc(CNC(=O)c2ccc3c(=O)n4nc(Nc5ccccc5)sc4nc3c2)c1	?	-28%
Cc1ccc(NC(=O)Cc2ccc3c(c2)OCCO3)cc1S(=O)(=O)N1CCCCC1	0%	-10%
O=C1CC(c2ccco2)CC(O)=C1C=Nc1ccc(Br)cc1 (stereo not given)	·	-20%

# (more compounds)
SMILES,Vaccinia mCherry,Vaccinia Venus
COc1ccccc1NC(=O)CSc1ccc(-c2ccc(-n3cccn3)cc2)nn1,-16%,-14%
O=C1C(=O)N(CC2CCCO2)C(c2ccco2)/C1=C(/O)c1ccc(F)cc1 (stereo not given),-1%,-1%
COc1cc(C(=O)NCCc2ccc3c(c2)OCO3)cc(OC)c1OC,-10%,-6%
Cc1c(NC(=O)CCC2CCCCC2)cc(C(=O)N2CCOCC2)cc1[N+](=O)[O-],-12%,-18%
O=C(NCCN1CCN(C(=O)c2ccccc2Cl)CC1)C(=O)NCc1ccccc1,-5%,-12%
CC(NC(=O)Cc1ccc([N+](=O)[O-])cc1)c1ccc2c(c1)OCO2 (stereo not given),-27%,-12%
O=S(=O)(Nc1nc2ccccc2nc1Nc1ccc2c(c1)OCO2)c1ccccc1,i,-6%
CCc1ccc(CN(C)Cc2nc(-c3cccc(Cl)c3)no2)nc1,-25%,3%
CN(CC(=O)Nc1ccc(F)cc1)c1ccc(S(=O)(=O)N2CCCCC2)cc1[N+](=O)[O-],?,?
O=C(CSc1n[nH]c(-c2cccnc2)n1)Nc1ccccc1[N+](=O)[O-],i,3%
C=CCn1c(P(C)(=O)O)nc2ccccc21,-14%&-7%,-6%&-6%
Cc1c(Cl)cccc1NC(=O)c1cc(S(=O)(=O)N2CCOCC2)cn1C,13%,-6%
COC(=O)c1ccc(N2C(=O)CC(N3CCC(n4c(=O)[nH]c5ccccc54)CC3)C2=O)cc1 (stereo not given),·,-28%
CC1CCCCC1NC(=O)c1ccc(S(=O)(=O)NCc2ccco2)cc1 (stereo not given),-17%,-3%
CC(C)CN1C2CCCC1CC(NC(=S)NCc1ccco1)C2 (stereo not given),i,-11%
Cc1ccc(NC(=O)CSc2n[nH]c(-c3cccnc3)n2)c(Br)c1,1%,-4%
Cc1csc(=O)n1CC(=O)Nc1nc2ccccc2s1,-20%,-7%
COCCNC(=O)C(c1ccc(F)cc1)N(Cc1cccs1)C(=O)CCC(=O)Nc1ccccn1 (stereo not given),-14%,-9%
COc1ccc(N(C(=O)c2ccc(Cl)cc2)C2=CC3CCC(C2)N3C)cc1 (stereo not given),·,5%
COC(=O)Nc1ncc(CN2C(=O)c3ccccc3C2=O)s1,-9%,2%
CCc1nnc(NC(=O)CCS(=O)(=O)c2ccccc2)s1,-15%,11%
CSc1nc(C)c(CCOCc2ccc(F)cc2)c(=O)[nH]1,i,-18%
CCCC(=O)Nc1ccc(S(=O)(=O)N2CCOCC2)cc1,-12%,-10%
COc1ccc(NC(=O)c2cc(C)nc3ccccc23)cc1S(=O)(=O)Nc1ccccc1Cl,i,-21%
Cc1nc2ccccc2c(=O)n1-c1cccc(O)c1,-18%,-14%
COCCCN1C(=O)C(O)=C(C(=O)c2ccco2)C1c1cccc(Br)c1 (stereo not given),-13%,-14%
CCn1cc(CNC(=O)c2cccc([N+](=O)[O-])c2)c(C)n1,-14%,-16%
CCOc1ccc(C(=O)NCCc2cnc[nH]2)cc1OCC,i,-8%
CC(=O)Nc1ccc(S(=O)(=O)N(C)CC(=O)OCC(=O)c2cc(C)n(-c3ccc4c(c3)OCO4)c2C)cc1,i,-11%
O=S(Cc1ccc(Br)cc1)Cc1nnc(SCc2ccc(Br)cc2)n1-c1ccccc1 (stereo not given),?,?
CCOC(=O)Cc1ccc(NC(=O)c2ccc(C(C)(C)C)cc2)cc1,?,?
CCOc1ccc(NC(=O)CC2C(=O)N(c3ccccc3)C(=O)N2CCc2sccc2C)cc1 (stereo not given),-11%,-2%
Cc1ccc(C(=O)CSc2nnc(-c3ccc4[nH]c(C)c(C)c4c3)o2)cc1C,?,3%
CC(=O)c1cccc(NC(=O)N2CCCC2C(=O)Nc2cccc(C)c2C)c1 (stereo not given),-10%,-4%
CCCCCN(C(=O)CCC(=O)OCC(=O)N(CC)C1CCCCC1)c1c(N)n(CCCC)c(=O)[nH]c1=O,?,-30%
Cc1ccc(N2C(=O)C3N=NN(CC(=O)N4N=C(c5ccccc5)CC4c4ccccc4)C3C2=O)cc1 (stereo not given),-11%,-8%
COC(=O)/C=C1/SC(=NC(=O)c2ccccc2)NC1=O,-9%,4%
CCn1c(O)c(N=N)c2ccccc21,-4%,1%
Cc1c(/C=N\NC(=O)c2ccc(F)cc2)cnn1C,-18%,-8%
CC(C)(C)[C@H]1CCC(=O)N([C@H](CC#N)Cc2ccccc2)CC1,-2%,-9%&-18%
COc1cc2c(cc1OC)C(c1ccccc1)N(Cc1ccc(S(=O)(=O)NC(=O)c3ccco3)cc1)CC2 (stereo not given),-8%,-7%
O=C(Nc1ccccc1C(=O)O)c1ccc(NC(=O)C2CC2)cc1,-11%,1%
Cc1occc1C(=O)N/N=C/c1c(O)ccc2ccccc12,1.8µM*,?
CC(C)C(=O)NCCc1c[nH]c2ccccc12,-6%,-12%
CCCN(CC(=O)NC(=O)NCc1ccccc1)CC(=O)Nc1ccc(F)c(F)c1F,?,?
O=[N+]([O-])c1cc(C(F)(F)F)cc([N+](=O)[O-])c1N1CCN(S(=O)(=O)c2ccccc2)CC1,-10%,-8%
Cn1c(N)c(C(=O)COC(=O)/C=C/c2ccc(OC(F)F)cc2)c(=O)n(C)c1=O,-9%,-12%
Cc1ccc(CNC(=O)CN2C(=O)CSc3c2c(C)nn3-c2ccccc2)cc1,8%,-1%
O=C(NCc1ccccn1)C1CC(c2ccc(Cl)c(Cl)c2)=NO1 (stereo not given),-16%,?
Nc1ncnc2c1ncn2[C@@H]1O[C@H](COP(=O)(O)CP(=O)(O)O)[C@@H](O)[C@H]1O,-14%&-13%,-16%&-6%
COC(=O)c1ccccc1N(C)S(=O)(=O)c1cc2c3c(c1)CC(=O)N3CCC2,-8%,-4%
COC1=C(OC)c2ccccc2C(C(=O)O)N/C1=C(/C)Nc1ccncc1 (stereo not given),·,-18%
CCN1C(=NCc2ccccc2)N[C@@H](c2ccccc2)[C@H](C(=O)OC)[C@H]1C,i,-11%
CCOC(=O)c1cnn(C)c1NC(=O)c1ccc(Cl)cc1Cl,-15%,-3%
COC(=O)[C@]12CCCCC=C1N(Cc1ccc(Cl)cc1Cl)C(=O)[C@H](CC(=O)NCCCN1CCCC1=O)C2,i,-4%
COc1ccc2c(c1)CCc1sc(NC(=O)c3ccc(C)cc3)nc1-2,·,-8%
CC(=O)Nc1cc(C(=O)N2CCCC2)ccc1S(=O)(=O)c1ccc(C)cc1,·,-11%
O=C(Nc1cccc(-c2ccc(N3CCCCC3)nn2)c1)c1ccco1,-23%,-16%
C=C(C)Cn1c(N2CCCC2)nc2c1c(=O)[nH]c(=O)n2C,-3%,-6%
O=C(COC(=O)c1ccccc1O)NCCCc1ccccc1,-14%,-11%

# Profiles as entered above.
# Listed for CCN1C(=NCc2ccccc2)N[C@@H](c2ccccc2)[C@H](C(=O)OC)[C@H]1C → Vaccinia mCherry: i; Vaccinia Venus: -11%
# Listed for O=C(NCc1ccccn1)C1CC(c2ccc(Cl)c(Cl)c2)=NO1 (stereo not given) → Vaccinia mCherry: -16%; Vaccinia Venus: ?

# Next records.
SMILES,Vaccinia mCherry,Vaccinia Venus
Cc1cccc(C)c1C(O)c1ncc(-c2ccc(Cl)cc2)[nH]1 (stereo not given),26%,-2%
CCOC(=O)c1sc(NC(=S)NC(=O)C23CC4CC(CC(C4)C2)C3)cc1C,-4%,-4%
Cc1cccc(NC(=O)c2cc(-c3cc(C)c(C)cc3O)n[nH]2)c1,-19%,-13%
CSc1nc(C)c(C(=O)C[n+]2ccccc2C)cc1C#N,?,13%
O=C(c1ccccc1)N1CCN=C1SCc1ccc([N+](=O)[O-])cc1,-14%,-5%
CCC(C)NC(=O)CCSc1ccc(C)cc1 (stereo not given),-10%,-8%
COc1ccc(CCN2C(=O)NC(NS(=O)(=O)c3ccc(Cl)cc3)(C(F)(F)F)C2=O)cc1OC (stereo not given),3%,0%
CCc1cccc(NC(=O)c2cc3c(=O)n(Cc4ccccc4)ccc3nc2C)c1,-7%,-17%
C[C@@H]1CN([C@@H](C)CO)C(=O)c2cc(Br)cnc2O[C@@H]1CN(C)S(=O)(=O)c1ccc(F)cc1,-8%,-14%
COC(=O)c1scc(C)c1NS(=O)(=O)c1ccc(NC(C)=O)cc1,-3%,0%
O=C(O)c1ccc(NC(=O)C2CC=CCC2C(=O)O)cc1 (stereo not given),·,-28%
COc1ccc(CNC(=O)CSc2nc3c(oc4ccccc43)c(=O)n2CC2CCCO2)cc1 (stereo not given),-14%,-10%
COCCNC(=O)Cn1cc(C(=S)N2CCCCC2)c2ccccc21,i,1%
CN(C)c1ccccc1,i,-7%
COC(=O)[C@@H](Cc1ccccc1)NC(=O)[C@H]1O[C@@H](n2cnc3c(N)ncnc32)[C@H](O)[C@@H]1O,40%[activator],5%
C=C[C@@H]1c2cccc(C)c2N(S(=O)(=O)c2ccc(C)cc2)[C@H](c2ccccc2)C1(C#N)S(=O)(=O)c1ccccc1 (stereo not given in full),i,-25%
COC(=O)c1ccccc1NC(=O)c1cccc(COc2ccccc2Cl)c1,?,-30%
O=C(Nc1ccc(Cl)c(Cl)c1)OCCNC(=O)c1ccncc1,-8%,-11%
N#C/C(=C\c1ccc(N2CCOCC2)c([N+](=O)[O-])c1)c1nc2ccccc2[nH]1,11%,-9%
Cc1cccn2c(=O)c3cc(C#N)c(=NC(=O)c4ccncc4)n(CCCOC(C)C)c3nc12,·,?
COc1cc(/C=C2\SC(N)=NC2=O)ccc1O,-17%,?
CCOc1ccc(CC(=O)OCc2cc(=O)n3cc(Br)ccc3n2)cc1,i,-5%
CCOc1ccc(NC(=O)CN(C)C(=O)CSc2ccccc2)cc1OCC,-22%,-21%
Cc1nc2ccc(NS(=O)(=O)c3ccc4c(c3)OCCO4)cc2s1,·,?
Cc1ccc(S(=O)(=O)NCC(c2ccc(N(C)C)cc2)N2CCOCC2)cc1 (stereo not given),0%,-7%
Oc1ccc(C2=NNC(c3ccc(O)cc3)=NN2)cc1,-15%,-14%
CC1CC(C)CN(CCCNS(=O)(=O)c2ccc3c(c2)oc(=O)n3C)C1 (stereo not given),-8%,4%
Cc1nc2ccn(Cc3ccco3)c(=O)c2cc1C(=O)N1CCN(c2ccccc2F)CC1,-17%,-17%
CO[C@@H]1CN(C)C(=O)c2cc(NC(=O)Nc3ccc4c(c3)OCO4)ccc2OC[C@@H](C)N(C)C[C@H]1C,-21%,1%
Cc1c(C(=O)N2CCCC2)oc2c1-c1nn(CC(=O)NCc3cccc(Br)c3)cc1CC2,-6%,-19%
CCCOc1ccc(F)cc1-c1cc(C(=O)Nc2ccc(C(C)C)cc2)[nH]n1,?,?
